Compound activity from PubChem.
ALR H2O2 inh: inhibitors of human ALR sulfhydryl oxidase, primary screen, biochemical, H2O2 detection, HRP-luminol luminescence, single point. FAD-linked sulfhydryl oxidase ALR (Homo sapiens), P55789. purified ALR, DTT oxidation. inhibition, % (no concentration beside the values). 290,000 compounds, 3.8% hits;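 active = mean and each replicate at 75% or more; inconclusive = only one of the two met; inactive = neither met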;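 note: stock transfer was 7.5 nL into about 7.5 µL; 0% = neutral wells and 100% = wells with inactivated enzyme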
Target sequence (P55789 whole entry, looked up): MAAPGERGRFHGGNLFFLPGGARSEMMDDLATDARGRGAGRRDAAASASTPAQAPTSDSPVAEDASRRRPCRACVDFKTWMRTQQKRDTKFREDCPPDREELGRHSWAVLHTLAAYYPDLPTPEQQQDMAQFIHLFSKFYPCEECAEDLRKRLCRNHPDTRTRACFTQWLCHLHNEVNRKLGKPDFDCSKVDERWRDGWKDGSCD
Ecoli rRNA inh: reduced GFP signal of wild-type E. coli, primary screen, bacterial rRNA inhibitor project, GFP/RFP fluorescence, OD600, single point. E. coli WT GFP vs humanized-ribosome RFP mutants, 24 h; stronger effect = lower value; DMSO median 0, no signal -100. GFP signal change (wild-type ribosome), % (concentration not given with the values). 350,000 compounds, 1.6% hits. AID 720706, 2013;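 active = significant combined selectivity score with lowered wild-type GFP, culture density cut under 30%, mutant RFP and density less affected; inactive = any of these conditions unmet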; note: one replicate is shown; some compounds called inactive have numbers as strong as hits
HNF4A DNA FP: change in binding of human HNF4A to DNA, primary screen, biochemical, fluorescence polarization, FITC-DNA; Hepatocyte nuclear factor 4-alpha (Homo sapiens), P41235; 1 h; activity change, % at 10 µM; 360,000 compounds, 0.3% hits; in the data active = activity change above about 30%, passing the limit was not always enough;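 note: controls were the assay level and a saturating level of protein; the project sought stronger binding though the title names inhibitors; some compounds called inactive have numbers as strong as hits; positive values seem to mean higher polarization but the record does not say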
Target sequence (P41235 whole entry, looked up): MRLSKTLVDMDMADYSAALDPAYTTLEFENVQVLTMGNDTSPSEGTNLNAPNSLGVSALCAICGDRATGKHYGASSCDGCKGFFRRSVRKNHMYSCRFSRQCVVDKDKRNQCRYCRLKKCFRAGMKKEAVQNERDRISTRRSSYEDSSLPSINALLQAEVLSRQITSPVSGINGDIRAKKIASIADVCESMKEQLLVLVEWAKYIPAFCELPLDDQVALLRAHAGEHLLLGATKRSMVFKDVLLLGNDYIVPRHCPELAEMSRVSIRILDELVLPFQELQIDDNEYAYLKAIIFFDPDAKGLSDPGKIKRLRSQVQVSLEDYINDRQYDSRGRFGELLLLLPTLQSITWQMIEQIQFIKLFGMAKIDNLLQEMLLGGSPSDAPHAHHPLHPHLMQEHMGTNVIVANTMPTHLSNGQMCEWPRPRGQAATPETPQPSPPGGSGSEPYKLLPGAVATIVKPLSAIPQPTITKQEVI
Vif A3G: inhibitors of Vif binding to APOBEC3G peptide, primary screen, biochemical, TR-FRET, GST-Vif 1-94, biotin-A3G peptide, dose response retest (AID 1117319). 260,000 compounds, 0.57% hits. TR-FRET GST-Vif / biotin-A3G peptide binding; higher % means a stronger effect; test concentration not given here; strong numbers were not always called active. inhibition, %, or IC50 in µM where a hit was titrated. Virion infectivity factor (Human immunodeficiency virus type 1 group M subtype B (isolate …;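 active = above the screen mean plus three standard deviations and confirmed in dose response; inconclusive = results disagree or hit not tested in dose response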;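 note: Vif residues 1-94 fused to GST binding biotinylated APOBEC3G peptide 110-148; 0% = full assay without inhibitor and 100% = GST in place of GST-Vif; retest series ran down from 100 µM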
E coli growth: E. coli growth inhibition, primary screen, OD600; Escherichia coli growth, 23 h; stronger effect = lower value; OD600 absorbance (concentration not given with the values); 330,000 compounds, 0.21% hits;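 active = OD600 absorbance below the run mean of sample wells minus 3.6 SD, in any replicate, cut at about 0.56 in these data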;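 note: stock transfer was 300 nL into about 60 µL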
FGF22 binding: binders of human FGF22 protein, primary screen, FGF22 synaptogenesis inhibitor project, biophysical, thermal shift, single point; Fibroblast growth factor 22 (Homo sapiens), Q9HCT0; recombinant FGF22 thermal shift, SYPRO orange fluorescence; percent of sucrose octasulfate shift, DMSO zero; calls only at 9.99 µM; 340,000 compounds, 1.5% hits; AID 651658, 2012;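 active = melting point raised past a set limit in the mean and every replicate; inconclusive = no clear call; three in four hits are not shown here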
Target sequence (Q9HCT0 whole entry, looked up): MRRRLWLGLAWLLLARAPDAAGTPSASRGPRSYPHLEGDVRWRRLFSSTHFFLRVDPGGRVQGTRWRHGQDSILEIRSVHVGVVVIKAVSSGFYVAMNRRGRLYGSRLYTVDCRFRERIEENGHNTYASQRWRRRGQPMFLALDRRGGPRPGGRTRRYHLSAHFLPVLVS
AF4-AF9 inh: inhibitors of AF4 peptide binding to AF9, primary screen, biochemical, AlphaScreen, biotin-AF4 peptide, FLAG-AF9, single point; inhibition, % at 10 µM; 350,000 compounds, 0.47% hits; Protein AF-9 (Homo sapiens), P42568; AID 651704, 2012;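 active = every replicate reaching a set inhibition limit, whatever the replicate mean, cut at about 25% in these data; inconclusive = mean inhibition reaches that limit but some replicates miss it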;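 note: 0% = plate neutral control median and 100% = total signal loss; the record names both 10 and 1 µM as test concentration; the first replicate is given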
Ecoli rRNA inh OD600: second read-out of Ecoli rRNA inh, no call of its own (marks repeat the call); OD600 change, %; measured here: OD600 growth;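 optical density of the mix in the first replicate; 0 = DMSO median and -100 = no signal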
Ecoli rRNA inh RFP: recorded beside Ecoli rRNA inh, whose call it bears; RFP signal change, %; measured here: RFP humanized mutant strains;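 first replicate; 0 = DMSO median and -100 = no signal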
Starred values were filed as active, the others as inactive; i = inactive; ? = inconclusive; nt = no result given.

SMILES	ALR H2O2 inh	Ecoli rRNA inh	Ecoli rRNA inh OD600	Ecoli rRNA inh RFP	HNF4A DNA FP	Vif A3G	E coli growth	FGF22 binding	AF4-AF9 inh
Cc1c(C(=O)N(Cc2ccccc2)C(C)C)cnn1-c1ccccc1	0	-1	-8	-0.6	0.7	-2%	0.64	i	2.7
Nc1ccc(Nc2nc3ccccc3[nH]2)cc1	42	6	11	-6.5	5.5	4%	0.73	i	1.3
O=C(N/N=C/c1ccc(C(=O)O)cc1)C1=NNC(c2ccccc2)(c2ccccc2)C1	-6	3	3	4.2	-3.5	3%	nt	i	-12
O=C(CCSc1ccc(Cl)c(Cl)c1)NC12CC3CC(CC(C3)C1)C2	-4	nt	nt	nt	-1.7	0%	0.69	nt	nt
Cc1ccc(CN(C(=O)c2cccs2)C2CCS(=O)(=O)C2)cc1 (centres undefined)	-8	4	10	2.1	0.9	nt	0.71	i	1.5
Cc1ccc(S(=O)(=O)NNC(=O)CCC(=O)Nc2ccc(C)cc2C)cc1	2	nt	nt	nt	3.1	13%	0.67	nt	nt
CCC(=O)NCCCc1nc(-c2ccccc2)no1	-25	6	6	6.2	0.8	nt	0.69	i	-1.7
COCC(=O)Nc1ccc2c(c1)C(=O)N(C)[C@@H]1CC[C@H](CC(=O)NCC3CCCCC3)O[C@H]1CO2	nt	-2	-1	-2.4	nt	nt	nt	i	0.9
CC(C)Nc1ncnc2c1ncn2[C@H]1CN(Cc2ccc(-c3ccccc3)cc2)C[C@@H](CO)O1	nt	-47	-74	-5.8	2.6	nt	nt	i	2.3
COc1ccc(CNC(=O)c2c(O)c3ccccc3n(C)c2=O)cc1OC	-2	nt	nt	nt	-1.5	5%	0.75	nt	nt
C[C@@H]1CCCCO[C@H](CN(C)Cc2ccc3c(c2)OCO3)[C@H](C)CN([C@@H](C)CO)C(=O)c2cc(NC(=O)CCC(F)(F)F)ccc2O1	nt	-3	0	0.9	nt	nt	nt	i	0.4
O=C(NCCc1cccc(F)c1)C1CCN(S(=O)(=O)c2ccc(F)cc2)CC1	nt	3	6	-0.3	-2.4	-12%	0.7	i	-1.9
COc1ccc(S(=O)(=O)N[C@@H]2CC[C@@H](CC(=O)N3CCc4ccccc4C3)O[C@H]2CO)cc1	nt	1	-1	-1.4	nt	nt	nt	i	-1.5
COc1cc2c(cc1OC)-c1cc(NC3CCCCC3)nc(=O)n1CC2	0	nt	nt	nt	4.2	-13%	0.65	nt	nt
COc1ccc(-c2csc(NC(=O)c3c(C)noc3C)n2)cc1	11	-6	-11	1.9	4.6	-10%	0.65	i	-1.0
COc1cc(/C=N/NC(=O)c2cccnc2)ccc1OS(=O)(=O)c1cc(C)ccc1C	-11	4	5	-1.5	-2.3	nt	nt	i	5.9
O=C(COc1ncnc2ccc(Br)cc12)NCc1ccco1	-3	9	1	-0.6	0.1	-66%	0.7	i	-17
COc1ccc(N/N=C/c2c(C(=O)O)ccc3ccccc23)cc1	-9	-13	-9	-4.2	0.5	4%	nt	i	-16
COC(=O)c1c(C(=O)OC)c(-c2cccc(C)c2)n2c1CS(=O)C2 (centres undefined)	11	10	-2	0.0	-2.4	-2%	0.67	i	0.4
CCN(CC)CC(=O)N1N=C(c2cccs2)CC1c1ccco1 (centres undefined)	-9	nt	nt	nt	1.6	0%	0.72	nt	nt
O=C(Nc1ccccc1F)N[C@@H]1CC[C@@H](CCNC(=O)C2CCC2)O[C@H]1CO	nt	3	0	0.7	nt	nt	nt	i	-3.6
COc1ccc(OC)c2[nH]c(=O)c(CCNC(=O)CC(C)C)cc12	-14	nt	nt	nt	2.0	2%	0.72	nt	nt
CCCN(CCC)S(=O)(=O)c1ccc(C(=O)OCCN2C(=O)c3cccc4c(N5CCOCC5)ccc(c34)C2=O)cc1	nt	nt	nt	nt	-73	-90%	0.71	nt	nt
COc1ccc(S(=O)(=O)NC(=O)C2(C)CCN2C(=O)Cc2cc(C)cc(C)c2)cc1OC (centres undefined)	nt	nt	nt	nt	-3.8	nt	nt	i	0.4
C=CCSc1nc2ccccc2c2nc(-c3ccccc3)nn12	-1	nt	nt	nt	-1.4	-1%	0.79	nt	nt
Next section:
SMILES	ALR H2O2 inh	Ecoli rRNA inh	Ecoli rRNA inh OD600	Ecoli rRNA inh RFP	HNF4A DNA FP	Vif A3G	E coli growth	FGF22 binding	AF4-AF9 inh
COc1ccc(-c2coc3cc(O)ccc3c2=O)cc1OC	-4	nt	nt	nt	-1.3	-1%	0.77	nt	nt
CC1(C)CC(=O)C=C(Nc2cc(-c3ccccc3)[nH]n2)C1	-14	nt	nt	nt	4.2	15%	0.73	nt	nt
COc1ccc(OCCCC(=O)OCC(=O)Nc2c(C)nn(-c3ccccc3)c2C)cc1	14	1	-4	-0.5	1.7	3%	0.72	i	-1.1
Cc1noc(C)c1NC(=O)N[C@H]1C=C[C@H](CC(=O)Nc2ccccc2)O[C@@H]1CO	nt	1	-2	-2.1	nt	nt	nt	i	-1.7
COc1cc(NC(=O)COc2cc(O)c3c(c2)OC(C)(C)CC3=O)cc(OC)c1OC	18	-12	-11	-8.6	2.5	nt	0.76	i	2.3
S=c1[nH]nc(-c2n[nH]c3c2CCC3)n1/N=C/C=C/c1ccccc1	48	9	4	-1.7	-0.8	-11%	nt	i	-1.6
CN(C)S(=O)(=O)c1cc(NC(=O)CSc2nn(-c3ccc(Cl)cc3)c(=S)s2)ccc1Cl	-2	nt	nt	nt	4.3	0%	0.69	nt	nt
CC(C)CNC(=O)c1cccc(NC(=O)C(C)Oc2ccccc2)c1 (centres undefined)	-3	-24*	-13*	-5.3*	-0.2	nt	0.69	nt	-3.2
C[C@@H]1CN([C@H](C)CO)C(=O)c2cc(C#Cc3ccccn3)cnc2O[C@H]1CN(C)C(=O)c1cnccn1	nt	0	10	0.6	nt	nt	nt	i	-4.0
C[C@@H]1CN([C@@H](C)CO)C(=O)c2cccc(NC(=O)C3CCOCC3)c2O[C@H]1CN(C)CC1CC1	nt	4	1	1.0	nt	nt	nt	i	-3.2
COc1ccc(N(C(=O)c2snc(C(N)=O)c2N)C(C(=O)NC2CCCCC2)c2ccc(C)o2)cc1 (centres undefined)	0	6	4	-2.3	0.3	nt	0.69	i	0.8
CC(=O)c1c(C(C)=O)c(C)n(Cc2ccc3c(c2)OCO3)c1C	-15	nt	nt	nt	-6.7	2%	0.69	nt	nt
Cc1cnc(C(=O)N2CCCC(C(=O)c3cccc(OC(C)C)c3)C2)cn1 (centres undefined)	-13	1	-4	-1.0	-2.3	0%	0.71	i	0.6
NS(=O)(=O)c1ccc(CCNC(=O)C2(S(=O)(=O)c3ccc(Cl)cc3)CC2)cc1	-4	1	9	-0.1	0.1	-1%	0.65	i	-0.4
Cc1ccccc1-c1ocnc1C(=O)Nc1ccccc1NC(=O)c1ccccn1	-8	-17	-15	2.1	3.2	nt	0.7	i	5.4
CC(C)(C)n1ncc2c(=O)n(Cc3ccccc3Br)cnc21	-1	-21	-38	-7.0	2.9	nt	0.62	i	-16
O=C(C[C@@H]1CC[C@@H]2[C@H](COC[C@H](O)CN2C(=O)c2ccc3c(c2)OCO3)O1)NC1Cc2ccccc2C1	nt	0	5	0.4	nt	nt	nt	i	-0.3
CC(C)c1ccc(Nc2n[nH]c(=S)s2)cc1	nt	3	6	-2.9	0.3	nt	nt	i	-7.6
CC(CN1CCN(C/C=C/c2ccccc2)CC1)c1ccccc1 (centres undefined)	-9	-1	0	-0.4	1.8	nt	0.62	i	0.3
CN(c1ccc(O)cc1)S(=O)(=O)c1ccc2ccccc2c1	nt	-38	-56	-12	-3.5	-3%	0.58	i	2.9
O=C(C[C@H]1CC[C@H](NC(=O)c2ccccn2)[C@@H](CO)O1)NCc1cccc(F)c1	nt	0	4	-1.5	nt	nt	nt	i	1.1
O=C(NCC[C@H]1CC[C@H](NS(=O)(=O)Cc2ccccc2)[C@@H](CO)O1)C1CCC1	nt	-1	0	-2.3	nt	nt	nt	i	-1.6
COc1ccc(/C=N/n2c(-c3ccc(C)cc3)n[nH]c2=S)cc1OC	11	-5	-4	-2.4	-2.9	-4%	nt	i	-1.3
COc1ccc(CN(C(=O)c2oc3ccccc3c2C)C2CCS(=O)(=O)C2)cc1OC (centres undefined)	0	nt	nt	nt	0.5	0%	0.73	nt	nt
C[C@@H]1CN([C@H](C)CO)C(=O)Cc2cc(NC(=O)Nc3ccc(F)cc3)ccc2O[C@@H]1CN(C)Cc1ccc(Cl)c(Cl)c1	nt	3	9	-0.8	nt	nt	nt	i	-0.6
Later entries
SMILES	ALR H2O2 inh	Ecoli rRNA inh	Ecoli rRNA inh OD600	Ecoli rRNA inh RFP	HNF4A DNA FP	Vif A3G	E coli growth	FGF22 binding	AF4-AF9 inh
COc1ccc(C(=O)NCc2nnc(SCC(=O)NCc3ccco3)o2)cc1	-4	2	7	0.1	-1.1	nt	0.71	i	-0.7
COc1cccc(N(C(=O)Cn2nnc(-c3cccs3)n2)C(C(=O)NC(C)C)c2ccc(C)o2)c1 (centres undefined)	-1	nt	nt	nt	1.0	-1%	0.73	nt	nt
CCC(=O)c1ccc(OCc2ccc(C#N)cc2)cc1	-3	-3	-3	-1.5	1.2	3%	0.7	i	-0.6
COc1cccc(C(=O)CSc2nnc(COc3cccc4cccnc34)o2)c1	-18	-35*	-15*	0.8*	1.1	2%	0.68	i	4.3
CCCc1nn2c(=O)cc(CSCC(=O)Nc3ccc(F)cc3)nc2s1	?	-1	12	-0.2	-0.6	nt	0.71	i	-2.7
CC1(C(=O)NCc2cccnc2)CCC(=O)N1Cc1cccs1 (centres undefined)	-2	9	12	0.0	-4.1	2%	0.74	i	-1.3
CN1CCN(C(=S)NC(=O)c2ccccc2Br)CC1	4	1	3	0.7	-0.3	nt	0.7	i	-22
CSCCC1NC2(C(=O)Nc3ccc(Cl)cc32)[C@@H]2C(=O)N(C3CCCC3)C(=O)[C@H]12 (some centres undefined)	-8	nt	nt	nt	nt	3%	0.7	nt	-2.0
C[C@@H]1CCCCO[C@@H](CN(C)S(=O)(=O)c2ccc(F)cc2)[C@H](C)CN([C@H](C)CO)C(=O)c2cc(NS(C)(=O)=O)ccc2O1	nt	1	1	2.9	nt	nt	nt	i	-1.1
Cc1ccc(NC(=S)NNc2ccc([N+](=O)[O-])cc2S(=O)(=O)Nc2ccccc2C(=O)O)cc1C	nt	nt	nt	nt	0.9	?	0.69	nt	nt
CN(Cc1ccccc1)C(=O)c1cccc(NC(=O)Cc2cccc(NC(=O)C3CCN(C(=O)c4ccccc4)CC3)c2)c1	nt	nt	nt	nt	-0.4	-2%	nt	i	-11
CCN(CC)C(=O)c1cc(-c2ccccc2OC)on1	3	nt	nt	nt	1.1	?	0.68	nt	nt
COc1cc(NC(=O)CN(C)S(=O)(=O)c2ccc(C)cc2)cc(OC)c1	-13	nt	nt	nt	0.9	6%	0.69	nt	nt
O=C(C[C@H]1C[C@@H]2c3cc(NC(=O)NC4CCCCC4)ccc3O[C@@H]2[C@H](CO)O1)NCc1ccccn1	nt	-1	6	-2.2	nt	nt	nt	i	-0.7

A portion of the library; count on the stated rates, not on these rows.
